CSC inhib: cancer stem cell inhibition | cancer stem cell-like cells viability, luminescence | inhibition, % at 7.5 µM | 300,000 compounds, 1.1% hits | AID 2717;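 active = mean at 75% or more and at least half the replicates too; inconclusive = mean and replicates disagree; tested in HMLE shEcad cells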;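 also: 0% = median of negative and 100% = median of positive control wells; the first replicate is given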
HIV Env fusion: inhibitors of HIV Env-mediated cell fusion; HeLa-JRFL Env/CEM21 cell fusion, luciferase; 360,000 compounds, 1.1% hits; inhibition, % at 12.3 µM;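 active = mean replicate inhibition score of at least 50 and every replicate individually at or above 50; inconclusive = only one of the two criteria met; inactive = mean below 50 and not all replicates reaching 50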;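 also: 0% = plate neutral controls and 100% = maraviroc near 300 nM; one replicate is shown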
eIF4H inh: inhibitors of RNA binding by human eIF4H; Q15056; eIF4H fluorescence polarization binding assay; inhibition, % at 35 µM; 290,000 compounds, 0.94% hits; AID 2012;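 active = 50% or more with normal probe brightness, or confirmed in later tests; inconclusive = above 50% with abnormal brightness, or retests that disagree; inactive = below 50% or failed in later tests; about a fifth of its hits are not listed in these tables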;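 also: calls also rest on retests at 20 µM and on dose response follow-up; 0% = protein and probe with vehicle and 100% = probe without protein; strong numbers were not always called active; many hits fall short of the cut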
PABP polyA inh: PABP-poly(A) binding inhibition; P11940; PABP-poly(A) RNA binding, fluorescence polarization; inhibition, % at 35 µM; 290,000 compounds, 1% hits; AID 2014;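 active = 50% or more with normal probe brightness, or confirmed in later tests; inconclusive = above 50% with abnormal brightness, or retests that disagree; inactive = below 50% or failed in later tests; about a fifth of its hits are not listed in these tables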;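 also: calls also rest on retests at 20 µM and on dose response follow-up; controls were probe without protein and protein plus probe with vehicle; some compounds called inactive have numbers as strong as hits; many hits fall short of the cut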
Target sequence (P11940 whole entry, looked up): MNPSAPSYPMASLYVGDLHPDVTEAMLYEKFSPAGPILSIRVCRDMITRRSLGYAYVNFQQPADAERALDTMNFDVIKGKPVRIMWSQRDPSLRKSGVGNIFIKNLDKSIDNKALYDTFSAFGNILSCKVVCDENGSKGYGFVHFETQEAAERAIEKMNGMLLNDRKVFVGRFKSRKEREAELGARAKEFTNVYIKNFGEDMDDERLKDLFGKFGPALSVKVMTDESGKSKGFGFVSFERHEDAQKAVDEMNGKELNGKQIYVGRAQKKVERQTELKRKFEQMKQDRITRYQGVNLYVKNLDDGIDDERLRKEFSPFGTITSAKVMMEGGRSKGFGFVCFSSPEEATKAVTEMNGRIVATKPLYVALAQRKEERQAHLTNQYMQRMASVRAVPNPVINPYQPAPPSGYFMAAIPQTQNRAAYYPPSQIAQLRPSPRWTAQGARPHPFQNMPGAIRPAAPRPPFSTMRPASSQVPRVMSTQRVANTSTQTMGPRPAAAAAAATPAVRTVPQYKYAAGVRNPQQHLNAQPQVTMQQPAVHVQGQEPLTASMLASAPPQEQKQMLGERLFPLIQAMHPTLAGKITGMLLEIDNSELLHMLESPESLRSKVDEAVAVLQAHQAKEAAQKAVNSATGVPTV
Yeast UUG start: alters start codon recognition fidelity in yeast; AID 602363; S. cerevisiae UUG-firefly luciferase reporter, luminescence/redox ratio; 350,000 compounds, 0.13% hits; activity score, % at 18.7 µM;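 active = replicate mean at a twofold rise or more, about +100% in these data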;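 also: firefly luciferase made from a UUG start codon reports start codon fidelity; reporter light over untreated wells divided by growth signal over untreated wells; some hits fall short of that in this replicate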
Rce1 inh: yeast Ras-converting enzyme inhibition; Q03530; yeast membranes, quenched prenylated peptide cleavage fluorescence; calls only; 290,000 compounds, 0.27% hits;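 active = fall in fluorescence gain of 50% or more versus controls, with final raw signal at or below 3038400; inconclusive = same 50% fall but final raw signal above 3038400; inactive = fall in fluorescence gain under 50%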;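 also: plate controls were neutral control wells for no effect and wells lacking membranes for full effect; tested at 10 µM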
MT1-MMP act inh: blocks activation of human MT1-MMP; P50281; HT1080 RFP-PRO-GFP cells, GFP/RFP ratio fluorescence, overnight; percent of plate control window, DMSO zero; GFP/RFP ratio change, % at 20 µM; 360,000 compounds, 0.061% hits; AID 651647;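 active = GFP/RFP ratio change of at least 30% with cell ATP level not reduced by more than half and red fluorescence within 50% of control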; also: strong numbers were not always called active
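Assay system: HT1080 cells carrying an RFP-PRO-GFP reporter | Dosing: Single dose of 20 µM compound, 1% DMSO final | Incubation: Cells overnight before dosing, compound overnight, 37 °C, 5% CO2 | Evaluation: GFP/RFP fluorescence ratio | Control set: DMSO and RFP-L50D-GFP cell wells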
eIF4H inh retest: also measured in eIF4H inh; calls as there; inhibition, %; compound at 20 µM; confirmation average;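 mean of two retest wells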
PABP polyA inh retest: second read-out of PABP polyA inh, no call of its own (marks repeat the call); inhibition, %; compound at 20 µM; confirmation repeats;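 mean of two retest wells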
MT1-MMP act inh RFP: second read-out of MT1-MMP act inh, no call of its own (marks repeat the call); RFP signal change, %; measured here: RFP expression control read;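 0 = vehicle wells; hits needed this value within 50% of zero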
Starred values were filed as active, the others as inactive; i = inactive; ? = inconclusive; nt = no result given. A portion of the library; the hit share may differ from the screen's.

SMILES	CSC inhib	HIV Env fusion	eIF4H inh	PABP polyA inh	Yeast UUG start	Rce1 inh	MT1-MMP act inh	MT1-MMP act inh RFP	others
CCn1nc(C)cc1C(=O)N1CCCC(C(=O)c2ccc(OC)cc2C)C1 (stereo not drawn)	-7	1	-8	7	-5	i	6	3
CC(C)C(=O)Nc1ncc(Cc2ccc(Cl)cc2)s1	-5	-2	-8	1	nt	i	3	1
CNC(=O)c1ccc(NC(=O)c2cccc(C(F)(F)F)c2)cc1	2	-4	-6	-9	-15	i	0	0
Cc1cc(C(=O)NCCN2CCOCC2)c2ccccc2n1	5	nt	nt	nt	1	nt	0	3
Cc1cc(C)cc(N(CC(=O)NCC2CCCO2)S(=O)(=O)c2c(C)noc2C)c1 (stereo not drawn)	-13	-7	8	-4	6	i	0	2
Cc1nnc2ccc(N3CCN(c4cccc(C(F)(F)F)c4)CC3)nn12	1	-14	8	-4	-22	i	8	-1
CN1C(=O)C(CC(=O)Nc2ccccc2)S/C1=N/c1nccs1 (stereo not drawn)	2	1	2	9	nt	i	-2	2
N#CCC(=O)Nc1ccc(C(=O)OCC(=O)c2c[nH]c3ccccc23)cc1	14	-34	nt	nt	-3	nt	2	-1
CN(C(=O)COc1ccc(C(C)(C)C)cc1)C1CCS(=O)(=O)C1 (stereo not drawn)	0	nt	-10	6	10	i	1	1
COc1ccc(C[C@@H]2CN3C(=NC[C@@H]3Cc3ccc(O)cc3)N2C[C@H](C)NC(=O)CCC2CCCCC2)cc1	2	nt	-3	1	-15	i	4	-2
CC/C(=C(\c1ccc(O)cc1)c1ccc(OCCN(C)C)cc1)c1ccccc1	52	-26	-6	-4	-1	i	-4	-5
CCCCc1ccc(NC(=S)NCC2CCCO2)cc1 (stereo not drawn)	-3	9	-10	2	-27	nt	2	0
O=C(O)c1ccccc1-c1ccccc1C(=O)NCCc1ccccc1	2	0	-6	3	-4	i	nt	nt
Cn1c(SCC(=O)c2ccccc2)nnc1-c1cnccn1	4	-22	-2	-4	-18	i	-5	2
O=C1OC(c2cccc([N+](=O)[O-])c2)C2(CCCC2)C(=O)C12CCCCC2 (stereo not drawn)	-9	36	-4	3	nt	i	-2	-14
Cn1c(CN2CCCC2)nc2cc(NC(=O)COc3ccccc3)ccc21	-9	nt	-9	-15	-19	i	1	4
CSCCC(NS(=O)(=O)c1ccccc1F)C(=O)Nc1ccncc1 (stereo not drawn)	-4	nt	nt	nt	-8	nt	1	4
C=CC[C@H](CC(=O)NCCO)C(=O)N[C@H](COC(=O)[C@@H](CC=C)CC(=O)OC(C)(C)C)Cc1c[nH]c2ccccc12	-10	3	nt	nt	1	nt	5	5
Cc1cccc(C(=O)N2CCc3ccccc3C2)c1[N+](=O)[O-]	-2	-13	2	-6	nt	nt	2	5
Cc1ccc(CCN2CC(C(=O)NCCCN(C)Cc3ccccc3)CC2=O)cc1 (stereo not drawn)	-5	nt	-3	0	-14	i	4	2
CC1(C)CC(=O)C2=C(C1)NC(=O)CC2c1ccccc1F (stereo not drawn)	-2	nt	-12	-4	-4	i	0	-2
Cc1ccc(-c2nn(-c3ccccc3)cc2C(=O)NCCCN2CCCC2=O)cc1	nt	-2	nt	nt	1	i	5	-3
COc1ccc(/C=C/c2nnc(NC(=O)COc3ccccc3)s2)cc1	6	-4	-10	-7	-3	i	6	1
COc1ccc(CCn2c(=N)c(C(=O)NCc3ccco3)cc3c(=O)n4ccccc4nc32)cc1	20	-49	38	5	3	i	-7	-7
COc1ccc(N(CN2C(=O)c3ccccc3C2=O)C(=O)COc2ccc(Cl)cc2Cl)cc1	-18	24	-13	3	-12	i	-2	-1

More entries
SMILES	CSC inhib	HIV Env fusion	eIF4H inh	PABP polyA inh	Yeast UUG start	Rce1 inh	MT1-MMP act inh	MT1-MMP act inh RFP	others
Cc1ccc(/C=N/NC(=O)Cn2cnc3ccccc32)cc1	-7	-1	89*	0.3*	-23	i	-3	-4	eIF4H inh retest=93*;PABP polyA inh retest=69*
CCCCC(=NCCO)C1=C(O)C(C(=O)OC)C(C)(C)CC1=O (stereo not drawn)	11	nt	-4	1	-13	i	2	0
Cc1ccc(C)c(NC(=O)C2C3C=CC(O3)C2C(=O)O)c1 (stereo not drawn)	nt	-22	3	-4	-16	i	-2	0
Cc1nn(Cc2c(Cl)cccc2Cl)c(C)c1NC(=O)CCCn1nc(C)c([N+](=O)[O-])c1C	5	-1	0	2	nt	i	-2	-1
CCOC(=O)C1CCN(S(=O)(=O)c2ccc(Cl)cc2OC)CC1	-17	19	1	12	11	i	0	0
COc1cc2c(cc1NC(=O)CN(C)Cc1cccc(OC)c1OC)oc1ccccc12	99*	6	-5	23	nt	i	-6	-8
CCOC(=O)c1cnn2c(N)c(C#N)cnc12	16	-31	-8	6	nt	i	2	4
COc1ccc2cc([C@H](C)C(=O)N(C)Cc3ccccc3N3CCCC3)ccc2c1	57	13	-3	-12	-12	i	-6	-2
COc1cccc(C(=O)NN2CC(O)=C(c3nc4ccccc4n3C)C2=N)c1	-7	nt	8	-10	nt	i	nt	nt
O=C1C2C3C=CC(C4CC34)C2C(=O)N1/N=C/c1ccc(-c2ccc(Cl)cc2[N+](=O)[O-])o1 (stereo not drawn)	-9	nt	?	?	12	i	-4	0
CC(=O)NC(Cc1cc(C)ccc1C)C(=O)N1CCN(C(=O)Nc2ccc(C(C)=O)cc2)CC1 (stereo not drawn)	-13	-31	-2	7	nt	i	1	4
O=C(O)c1ccc(-n2cccc2/C=N\NC(=O)c2cc3cc(Br)ccc3o2)cc1	-8	-6	86*	80*	-8	i	3	0
Cc1nc(SCC(=O)Nc2nc3ccccc3s2)n[nH]1	10	-10	-11	-2	-24	i	7	-4
C=CCNc1oc(C2CCCC2)nc1C#N	-4	-14	nt	nt	-4	nt	0	2
Cc1ccccc1C1NS(=O)(=O)N=C1N (stereo not drawn)	-8	-260	-3	9	-8	i	-2	4
O=C(Nc1ccccc1)c1ccc(S(=O)(=O)Nc2cccc(O)c2)cc1	-2	22	-2	-4	1	i	-2	-17
Cc1ccc(-c2nn(CCC(=O)NCC3CCCO3)c(=O)c3ccccc23)cc1 (stereo not drawn)	-2	-29	8	-10	-14	i	-13	-1
COc1ccc(NS(=O)(=O)c2ccc(Oc3c(C#N)cccc3C#N)cc2)cc1	3	23	4	10	nt	i	3	-28
CC(C)C(C(=O)NCC1CCCO1)N(Cc1ccco1)C(=O)CNS(=O)(=O)c1ccc(F)cc1 (stereo not drawn)	-6	nt	-7	-8	-4	i	-3	-4
CC1(C)CC(=O)c2c(-c3cccnc3)n[nH]c2C1	-8	-71	8	4	-10	i	-2	2
C=CCn1c(N)nc2ccccc21	-7	nt	-2	0	-10	i	3	6
O=c1oc(-c2cccs2)nc2scc(-c3cccs3)c12	18	nt	-3	6	-20	i	3	-1
Cc1ccc(-n2c(O)c(C=Nc3ccccc3-c3n[nH]c(=S)[nH]c3=O)c3ccccc3c2=O)cc1C	nt	29	13	-12	nt	i	1	-7
CCN(CC)S(=O)(=O)c1cc(NS(=O)(=O)c2cccc(C(=O)O)c2)ccc1C	6	-13	2	1	5	i	1	4
COC(=O)c1cc2nc(-c3ccccc3)cc(C)n2n1	-7	nt	-6	7	-15	nt	6	2

Later entries.
SMILES	CSC inhib	HIV Env fusion	eIF4H inh	PABP polyA inh	Yeast UUG start	Rce1 inh	MT1-MMP act inh	MT1-MMP act inh RFP	others
COC(=O)[C@@H]1CC(O)CN1C(=O)C12CC3CC(CC(C3)C1)C2 (stereo partly drawn)	-3	-5	-6	13	-7	i	3	2
CN(Cc1cnccn1)C(=O)CC1C(=O)NCCN1Cc1c(F)cccc1Cl (stereo not drawn)	-12	-10	-2	11	-16	i	-3	1
N#C/C(=C\c1cc2ccccc2nc1N1CCCCC1)C(N)=O	-6	nt	4	20	nt	nt	-10	2
COC(=O)c1ccccc1NS(=O)(=O)c1ccc(NC(C)=O)cc1	0	17	-6	-6	3	nt	-2	-5
c1cc(-c2cc3nc(NC4CCCCC4)ccn3n2)ccc1OCCN1CCOCC1	nt	7	nt	nt	-2	nt	4	-2
COc1ccc(/C=C/C(=O)c2sc(-c3ccccc3)nc2C)cc1	31	-50	-8	1	-16	i	-6	-2
O=C(O)c1ccccc1NS(=O)(=O)c1ccc(N/N=C/c2ccc(O)c(O)c2)c([N+](=O)[O-])c1	nt	2	nt	nt	10	nt	25	-1
CCOc1ccc(C2C=C(c3ccccc3)Nc3ncnn32)cc1 (stereo not drawn)	-8	nt	11	1	nt	i	nt	nt
Cc1cc(C(=O)N/N=C2\CC(=O)CC(C)(C)C2)c(C)n1-c1ccc(F)cc1	4	0	36	-5	-10	i	4	2
Cc1cc(OCC(=O)N(Cc2cccs2)C2CCS(=O)(=O)C2)ccc1Cl (stereo not drawn)	nt	16	-16	2	15	i	4	-3
COc1cc(N2CCCC2)c(OC)cc1/C=C(/C#N)c1cccc(Br)c1	72	nt	?	?	-20	i	-255	-2
CCCn1c2ccccc2c2cn[nH]c(=O)c21	-9	3	-12	-2	-36	i	-1	-1
Cc1ccc(Nc2nnc(SCC(=O)c3c(N)n(C4CC4)c(=O)[nH]c3=O)s2)cc1C	14	nt	nt	nt	-36	nt	4	2
O=c1[nH]ccc2c([N+](=O)[O-])cccc12	-1	-16	4	7	nt	i	-6	4
COc1cc(S(=O)(=O)NC2CCCCC2C)ccc1-n1cnnn1 (stereo not drawn)	10	21	-9	-3	nt	i	2	-3
CN(CCNC(=O)c1cccc(N2CCCC2=O)c1)Cc1ccccc1	-10	20	-12	6	-1	i	2	0
Cc1cc(C)cc(-n2c3ccc(NC(=O)Cc4cccc5ccccc45)cc3c(=O)n2C)c1	nt	-77	nt	nt	-23	nt	14	2
CCN1CC(CNC(=O)c2ccc3nc(Cc4cccc(Cl)c4)oc3c2)CC1=O (stereo not drawn)	6	-6	-10	10	4	i	6	-2
CCCCC(=O)NC(c1ccc([N+](=O)[O-])cc1)c1c(O)ccc2ccccc12 (stereo not drawn)	65	1	-5	-12	-10	i	-21	-35
Clc1ccccc1C=NNc1ccccn1	nt	-33	nt	nt	-5	nt	1	-2
COc1ccc(C(=O)Nc2cc(C)ccc2NC(=O)COc2ccccc2)cc1	-13	nt	0	1	-22	i	7	2
CCOP(=O)(OCC)c1ccc2c(c1)C(=O)c1ccccc1CC2	-13	29	nt	nt	-8	nt	-3	-1
O=c1c2ccccc2c(=O)n(Cc2ccccc2)n1Cc1ccccc1	25	12	1	-1	nt	i	-5	-5
CC(C)[C@H]1C(=O)Nc2ccccc2N1C(=O)N[C@@H](Cc1ccccc1)C(=O)N[C@H](Cc1ccccc1)C(=O)O	12	nt	0	-12	1	i	3	0
O=C(Oc1ccccc1C(=O)N1CCOCC1)c1ccc(F)cc1	-21	-42	-9	-3	-16	i	-4	-2
C=CCN1C(=O)c2ccc(C(=O)N(CC)CC(=O)Nc3c(F)cccc3F)cc2C1=O	nt	-10	nt	nt	-23	i	1	1

Nothing new here: an excerpt of the list.
SMILES	CSC inhib	HIV Env fusion	eIF4H inh	PABP polyA inh	Yeast UUG start	Rce1 inh	MT1-MMP act inh	MT1-MMP act inh RFP	others
COC(=O)c1ccccc1NS(=O)(=O)c1ccc(NC(C)=O)cc1	0	17	-6	-6	3	nt	-2	-5
c1cc(-c2cc3nc(NC4CCCCC4)ccn3n2)ccc1OCCN1CCOCC1	nt	7	nt	nt	-2	nt	4	-2
COc1ccc(/C=C/C(=O)c2sc(-c3ccccc3)nc2C)cc1	31	-50	-8	1	-16	i	-6	-2

High-throughput results as filed in PubChem.
